Screens (PubChem BioAssay)
MgrA-DNA mod = modulators of Staphylococcus aureus MgrA DNA binding; inhibition, %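 (about 10 µg/mL by stock and volumes)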; 0.13% of 84,000 active; AID 602314; fluorescence polarization;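 active = above 50% in either of two replicates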;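 also: 0% = protein plus DNA without compound and 100% = DNA alone without protein; higher means less MgrA bound to DNA so lower polarization; one replicate is shown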
S aureus helic = blocks Staphylococcus aureus DNA helicase. inhibition, %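 (tested at about 80 µM)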. 0.05% of 120,000 active. purified S. aureus helicase, fluorescence unwinding assay; about half of the hits fall short of the stated cut. AID 485395;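 active = both duplicates at 50% or more, or one of them with a favoured structure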;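 also: 0% = mean of negative control wells and 100% = mean of positive control wells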
The depositor's hits bear a star; . = not tested or not shown.

smiles	MgrA-DNA mod	S aureus helic
S=c1[nH]cnc2sc3c(c12)CCCC3	.	-19
CC(C)N(C(=O)Cn1c(-c2cccnc2)ccc(C#N)c1=O)C(C)C	-3.9	7
CCN(CC)C(=O)Cn1cc(S(=O)(=O)CC(=O)NC2CCCC2)c2ccccc21	.	-6
CCC(C)NC(=O)c1cn(CC)c2ccc(S(=O)(=O)N3CCCCCC3)cc2c1=O (stereo not drawn)	-3.1	8
Cc1nnc(N2C(=N)S/C(=C\c3c(-c4ccccc4)n(C)c4ccccc34)C2=O)s1	.	-62
Cc1cc(Br)ccc1NC(=O)CC1CCCCC1	0.8	-5
COc1cccc(-n2c(N)cc(=O)nc2SCC(=O)N2CCN(c3ccccc3)CC2)c1	.	12
CCN(CC)C(=O)CN1C(=O)S/C(=C\c2ccccc2)C1=O	.	1
NC(=O)C1Cc2ccccc2CN1C(=O)CSc1nnc(-c2ccco2)n1Cc1ccccc1 (stereo not drawn)	.	-17
CN(C)S(=O)(=O)c1ccc(NC(=O)c2ccc(=O)n(C)n2)cc1	.	17
c1ccc(-c2ccc(N3CCOCC3)s2)cc1	.	5
NS(=O)(=O)c1ccc(NC(=O)c2cnc3ccccn3c2=O)cc1	.	-4
CC(=O)Oc1ccc2c(=O)c(Oc3ccccc3)c(C)oc2c1	.	11
CCc1[nH]c(=S)[nH]c(=O)c1C#N	1.9	.
COc1cccn(Cc2nnc(SCc3ccc(Cl)cc3)n2C)c1=O	.	-24
Cc1ccc[n+](C(C)C(=O)c2ccccc2)c1 (stereo not drawn)	0.8	2
CC(=O)NCc1ccc(C(=O)COC(=O)CSc2ncnc3sccc23)o1	.	-15
CCO/C=C(\C#N)S(=O)(=O)C(C)(C)C	-0.5	.
O=C(Nc1ccc(N2CCOCC2)cc1)C1CCCN(C(=O)c2ccc(Cl)cc2)C1 (stereo not drawn)	.	-16
CC(=O)c1cnn(-c2c(Cl)cc(Cl)cc2Cl)c1C	-2.7	.
Nc1ccc(OCC(O)C[n+]2ccccc2)cc1 (stereo not drawn)	-0.7	2
CCn1c(O)c(/C=N/NS(=O)(=O)c2ccc(C)cc2)c(=O)n(CC)c1=S	.	3
CCOC(=O)c1ccc(CN)cc1	-3.1	-10
CCOC(=O)C1CCN(c2cc(C(F)(F)F)nc3c(F)cccc23)CC1	-3.1	.
O=C(CSc1nnc(-c2ccccc2)n1-c1ccccc1)N1CCCC1	-0.8	3
c1ccc(OCc2cn3cccnc3n2)cc1	.	14
COc1ccc2cc(C(C)C(=O)Nc3ccc(N4CCN(C)CC4)cc3)ccc2c1 (stereo not drawn)	.	22
CS(=O)(=O)OC12CC3CC(CC(C3)C1)C2	0.7	.
CCn1c(-c2ccc(F)cc2)csc1=Nc1cc(OC)c(Cl)cc1OC	-1.6	3
CN(CCc1ccccn1)C(=O)c1cc2c(=O)oc3ccccc3c2s1	.	5
Cc1ccc(C)n1-c1sccc1C#N	-2.8	.
CCOc1ccc(-c2c(C#N)c(N)nc(SCC(=O)c3ccc(OC)cc3)c2C#N)cc1	-2.8	.
CCc1nc2ccccc2nc1CC	2.8	.
CCC1=C(c2ccc(C)cc2)S(=O)(=O)N=C1N1CCC(C(=O)N2CCC(C)CC2)CC1	.	-33
COc1ccc(OCC(=O)Nc2c[nH]c(=O)[nH]c2=O)cc1	0.2	-3
CCc1ccc(-c2nc(CSCC(=O)NCc3ccco3)c(C)o2)cc1	.	17
Cc1cc(C)c(C(N)=O)c(CC(C)(C)C(=O)O)c1	-4.2	.
COC(=O)c1c(C(C)(C)C)oc2c1cc(NS(=O)(=O)c1ccc(C)cc1)c1ccccc12	5.2	8
O=C(COC(=O)COc1ccc(Br)cc1)NC1CCCC1	-0.3	2
CC1N=C(N)C(c2nc3ccccc3n2C)=C1O (stereo not drawn)	.	6
O=C(O)Cc1cn(-c2ccc(Cl)nn2)c2ccccc12	6.6	.
Cc1cccc(N2CCN(C(=O)CCC(=O)O)CC2)c1C	-0.4	4
COC(=O)c1ccc(NC(=S)NC(=O)C2CC2)cc1	-1.1	8
CCC(=O)NC(C)c1nc2ccccc2[nH]1 (stereo not drawn)	.	-18
Cc1ccc(C)c(OCCC(=O)N2CCN(S(=O)(=O)c3cc(F)ccc3F)CC2)c1	.	-15
COC(=O)C1Cc2ccccc2CN1 (stereo not drawn)	-0.1	8
CCc1ccc(NC(=O)COC(=O)CC2CCCC2)cc1	-0.9	-3
COc1ccc(CCn2nnnc2CN2CCN(Cc3ccccc3)CC2)cc1OC	-2.4	10
CC12CCC(=O)N1C(C(=O)OCn1nnc3ccccc3c1=O)CS2 (stereo not drawn)	.	1
O=S(=O)(c1ccc(NC(=S)NCc2ccco2)cc1)N1CCCC1	-1.2	8
N#Cc1c(N2CCCC2=O)sc2c1CCC2	0.1	5
O=C(O)c1cccc(Nc2ccnc3cc(Cl)ccc23)c1	0.3	27
CCOc1ccc(/C=N/NC(=O)c2cccnc2)cc1CN1CC2CC(C1)c1cccc(=O)n1C2 (stereo not drawn)	.	9
Cc1c(Cc2ccccc2)sc(/N=C/c2ccc(Cl)cc2)c1C(N)=O	1.9	10
CCOC(=O)c1ccc2c(c1)nc(SC/C(O)=C(\C#N)c1nc3ccccc3[nH]1)n2CC	.	-31
Cc1ccc(C)n1-c1nn(S(=O)(=O)c2cccc3cccnc23)c2cccc(F)c12	.	-17
CCCCNC(=O)C1CCN(Cc2ccccc2OCC)CC1	-5.8	13
Cc1onc(-c2ccccc2)c1C(=O)Nc1cccnc1	-1.3	14
Cc1ccc(-c2nnc(SCc3cccc(S(=O)(=O)N4CCOCC4)c3)n2N)cc1	.	17
COc1ccc(C2SCC(C(=O)O)N2C(C)=O)cc1 (stereo not drawn)	-7.1	11

Other compounds:
smiles	MgrA-DNA mod	S aureus helic
CCc1ccc(C(=O)OCC(=O)NC2CCCC2)cc1	.	10
Cn1c(O)c(C=Nc2ccc(Br)cc2)c2ccccc21	.	-13
O=C(Cc1ccccc1)c1nc2ccccc2s1	.	-1
O=C(Nc1ccc(NC(=O)C2CC2)cc1)C1CC1	2.2	-1
CCOC(=O)Cc1c(C)[nH]c(=O)[nH]c1=O	1.6	11
N#CCC(=O)NNC(=S)Nc1ccc(Cl)c(Cl)c1	5.2	.
CCn1c(=O)c(-c2c(C)nn(-c3ccccc3)c2C)nc2cc(S(=O)(=O)N(C)C)ccc21	.	-11
CCOC(=O)c1c(N)n(CCNC(=O)c2cc(OC)c(OC)c(OC)c2)c2nc3ccccc3nc12	.	15
CC1(C)c2sc(=O)[nH]c2SC2C(=O)N(CC(=O)N3CCOCC3)C(=O)C21 (stereo not drawn)	.	13
CCCc1cc(=O)[nH]c(SCC(=O)N2CC3(C)CC2CC(C)(C)C3)n1 (stereo not drawn)	.	11
CCOC(=O)c1c(/N=C/c2ccccc2O)sc2c1CCC2	-0.2	.
CCN(CC)S(=O)(=O)c1cccc(C(=O)Nc2ccccc2)c1	3.4	14
COC(=O)C(C(=O)OC)c1nc2ccccc2nc1Cl	.	10
CC1CCc2nc(NNC(=O)CN3CCCC3)nc(C(F)(F)F)c2C1 (stereo not drawn)	.	-8
Cc1csc(=O)n1CC(=O)NC(C)C12CC3CC(CC(C3)C1)C2 (stereo not drawn)	.	-5
CCCN(Cc1cccs1)C(=O)Nc1ccc(OC)cc1	.	15
CC(C)NC(=O)CSCc1cnn(-c2ccccc2)c1-n1cccc1	0.3	12
CC1(C)Cc2c(sc3ncn4nc(-c5ccccc5)nc4c23)C(C)(C)N1	1.7	-2
Cc1ccc(-c2ccc(=O)n(CC(=O)NCCN3CCCCC3C)n2)cc1 (stereo not drawn)	-1.5	2
COc1ccc(C2c3cc(OC)c(OC)cc3CC(=O)N2NC(=O)c2ccco2)cc1 (stereo not drawn)	2.6	-10
O=C(c1nc(SCc2ccc(Cl)cc2)n2ccccc12)C(F)(F)F	4.6	.
Cc1cc(C)c(C#N)c(Oc2cccc(N)c2)n1	.	-14
COc1cccc(CN2CCc3nc(Nc4ccccc4)ncc3C2)c1	.	3
O=C(NNS(=O)(=O)c1cc(C(F)(F)F)cc(C(F)(F)F)c1)c1cc(C(F)(F)F)ccc1Cl	-2.2	.
CCn1c(-c2cccs2)c(CNC(=O)Nc2ccc3c(c2)OCCO3)c2ccccc21	.	14
NC(=O)C1CCN(C(=O)c2ccc(Oc3cc(Cl)cc(Cl)c3)o2)CC1	1.4	.
CCCNC(=O)c1ccc2c(c1)N(Cc1ccc(F)cc1)CCS2	3.3	-8
CC(OC(=O)C12CC3CC(CC(O)(C3)C1)C2)C(=O)N(C)c1ccccc1 (stereo not drawn)	.	9
Cc1cc2c(cc1S(=O)(=O)NCc1ccccc1)n(C)c(=O)c(=O)n2C	.	5
Cc1cc(Sc2ccccn2)c2ccccc2n1	1.1	-20
CN(C)C(=O)COc1ccc2c(-c3ccccc3)cc(=O)oc2c1	-2.8	-16
O=S(=O)(c1cccc(C(F)(F)F)c1)N1CCN(S(=O)(=O)c2cccc(C(F)(F)F)c2)CC1	-1.2	2
O=C(CCn1[nH]c(=O)ccc1=O)Nc1ccc(-c2cc3ccccc3o2)cc1	.	-12
Cc1ccc2cc(CCNC(=O)C34CC5CC(CC(C5)C3)C4)c(=O)[nH]c2c1C	1.1	9
Cc1ccc(S(=O)(=O)N2CCCCC2)cc1C(=O)O	.	4
CCOc1cc(C(=O)O)c(N)cc1OC	.	10
Cc1oc(-c2ccccc2)nc1CCO	-1.9	.
CC1=NCCN1S(=O)(=O)c1c(C(C)C)cc(C(C)C)cc1C(C)C	-1.4	-9
Fc1cccc(Cl)c1-n1cccc1	.	-15
CC1CCCCC1NC(N)=O (stereo not drawn)	.	-6
Cc1ccc2onc(CC(=O)NC3CCCCC3)c2c1	1.9	-9
O=C(O)c1ccccc1C(=O)NCc1ccc(-c2cccs2)s1	-0.2	.
COc1ccc(-c2cn3ccccc3n2)cc1	.	-38
CCCNC(=O)N1CCN(c2ncccn2)CC1	.	25
O/N=C(\CNC(c1ccccc1)(c1ccccc1)c1ccccc1)c1ccccc1	-0.3	.
O=c1c2ccccc2nc2ccc(NC3CCCCC3)nn12	.	13
O=S(=O)(O)CCS	7.8	.
COCC(C)NC(=O)c1cccs1 (stereo not drawn)	-1.9	-4
Cn1ccnc1Sc1ccc(S(=O)(=O)N2CCCC2)cn1	.	11
O=C(Nc1ccccc1)Nc1nc(=O)c2ccccc2s1	-1.3	7
CC(C)CNC(=S)N(C)N	.	8
Cc1cc(-n2nc(C)cc2C)nc(N)n1	-1.6	.
FC(F)(F)c1nc2ccccc2nc1NCc1cccnc1	0.3	.
Cc1nc2cc(C(=O)N3CCN(C)CC3)ccc2n1-c1ccccc1	4.6	13
CCn1c(CNC(=O)Cc2ccc(OC)cc2)nnc1SCCOc1ccccc1	-2.9	9
NC(=O)CSc1nnc(CSc2nc3ccccc3s2)n1Cc1ccccc1	.	24
CCN(CC)CC(O)Cn1c2ccccc2c2ccccc21 (stereo not drawn) (tested in a mixture with another compound)	.	0
O=C1COc2cc(S(=O)(=O)N3CCCCCC3)ccc2N1	0.3	8
CCOC(=O)C1CCN(c2csc3ccccc3c2=O)CC1	.	9
CCn1c(C)nc2cc(C(=O)OC)ccc21	0.1	3

(next part)
smiles	MgrA-DNA mod	S aureus helic
COC(=O)[C@H](C)NC(=O)c1cccc(C)c1	.	14
C=CCC1(NCc2ccco2)CCN(C)CC1	.	4
N#Cc1cccc(C(=O)NCc2ccccc2)c1	.	10
Cc1ccc2nc(SCC(=O)N(C)c3ccccc3)nc(=O)n2c1	.	-9
Cc1cc(C)n(-c2ccc(CSc3nnc(C4CC4)n3Cc3ccccc3)cc2)n1	.	14
CN(C)c1nc(N)nc(-c2ccco2)n1	3.0	4
O=C(O)CN(Cc1ccccc1)C(=O)C(F)(F)F	4.3	11
O=C(NC(=O)N1CCc2ccccc21)c1c(Cl)cccc1Cl	1.6	.
CC(=O)Nc1cccc(NC(=O)C2CC(=O)N(C3CCCCC3)C2)c1 (stereo not drawn)	1.1	9
N#C/C(=C\c1ccccc1)C(=O)N1C(=O)c2ccccc2S1(=O)=O	.	-16
CC(C)(C)C(=O)OCc1nc(-c2ccc(C(F)(F)F)cc2)cs1	1.9	.
COc1ccc(C2(CNC(=O)Cc3ccc(OC)c(OC)c3)CCOCC2)cc1	.	9
O=C(CSc1nc(-c2ccccc2)cc(=O)[nH]1)c1ccc(Cl)s1	4.0	.
O=C(O)CCC12CC3CC(CC(C3)C1)C2	2.5	.

This is a subset. The share of hits here may be higher or lower than overall.
